ClpP mod = qHTS Assay for Activators of ClpP | Potency, µM (top dose mostly 57.5 µM), for inactives: top-dose activity change, negative = active | AID 651965, 2013 | ATP-dependent Clp protease proteolytic subunit (Bacillus subtilis (strain 168)), P80244 | 340,000 compounds, 1.9% hits | purified B. subtilis ClpP, FRET peptide cleavage, 20 min; active = well fitted falling curve with a large enough effect; inconclusive = small, poorly fitted or top-dose-only effect; inactive = no such curve, though single readings can be large or run the other way; further: the source files actives as falling curves though it sought activators and does not explain the sign; nearly all actives have a fitted effect of over 65% in size; many hits overshoot -100%
Target sequence (P80244 whole entry, looked up): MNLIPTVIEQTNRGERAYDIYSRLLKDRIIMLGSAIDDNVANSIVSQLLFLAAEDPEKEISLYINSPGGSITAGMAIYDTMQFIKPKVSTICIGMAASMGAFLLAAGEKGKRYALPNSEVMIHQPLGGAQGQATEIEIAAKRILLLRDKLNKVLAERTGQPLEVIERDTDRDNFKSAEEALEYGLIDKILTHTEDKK
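Buffer: 100 mM Tris/HCl pH8, 100 mM KCl, 0.05% low protease BSA, 2.5% glycerol, 0.01% Tween-20. ClpP 10 microg/mL final; 20 min RT; delta FRET normalized to ADEP and DMSO controls.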
* = called active by the depositor; u = inconclusive. Potency means the concentration at half of the fitted maximal effect. An excerpt; rates above refer to the full screens.

The opening 7 entries as a preview:
| Molecule | ClpP mod |
| --- | --- |
| CCCCN(CC)CCNC(=O)CN1C(=O)COc2ccc(S(=O)(=O)N3CCOCC3)cc21 | -2.2% |
| COc1cccc(NC(=O)CN2CCCN(S(=O)(=O)c3ccc(Br)cc3)CC2)c1 | -1.8% |
| N#Cc1c(C(F)(F)F)cc(-c2cccs2)nc1SCC(=O)Nc1ccc(F)cc1 | 4.4% |
| Cc1cccc(OCC(=O)N(Cc2sccc2C)C2CCS(=O)(=O)C2)c1 (stereo unspecified) | -0.9% |
| COc1cccc(CNCCSc2nnnn2C)c1OCc1ccccc1 | -4.2% |
| CCSc1ncc(Cl)c(C(=O)N(Cc2ccc(C(C)(C)C)cc2)C2CCS(=O)(=O)C2)n1 (stereo unspecified) | -2.1% |
| COc1cccc(C(=O)N2CCC(c3nc4ccccc4s3)CC2)c1 | -0.4% |

The listing, repeating the preview:
| Molecule | ClpP mod |
| --- | --- |
| CCCCN(CC)CCNC(=O)CN1C(=O)COc2ccc(S(=O)(=O)N3CCOCC3)cc21 | -2.2% |
| COc1cccc(NC(=O)CN2CCCN(S(=O)(=O)c3ccc(Br)cc3)CC2)c1 | -1.8% |
| N#Cc1c(C(F)(F)F)cc(-c2cccs2)nc1SCC(=O)Nc1ccc(F)cc1 | 4.4% |
| Cc1cccc(OCC(=O)N(Cc2sccc2C)C2CCS(=O)(=O)C2)c1 (stereo unspecified) | -0.9% |
| COc1cccc(CNCCSc2nnnn2C)c1OCc1ccccc1 | -4.2% |
| CCSc1ncc(Cl)c(C(=O)N(Cc2ccc(C(C)(C)C)cc2)C2CCS(=O)(=O)C2)n1 (stereo unspecified) | -2.1% |
| COc1cccc(C(=O)N2CCC(c3nc4ccccc4s3)CC2)c1 | -0.4% |
| CCc1ccc(CSc2nc(-c3ccccc3F)nc3c2Cc2c(CO)cnc(C)c2O3)cc1 | -0.3% |
| COc1ccc(C(CC(=O)NCc2ccccc2Cl)N2Cc3ccccc3C2=O)cc1OC (stereo unspecified) | -0.6% |
| COc1ccc(Cn2cc(C(=O)c3ccc(Cl)cc3)c(=O)c3cc4c(cc32)OCO4)cc1 | -5.2% |
| CCOc1cccc(C2C=C(c3ccc4c(c3)OCO4)NC(c3cccc(Br)c3)N2)c1O (stereo unspecified) | -0.6% |
| COc1ccccc1CNC(=O)Cc1c(C)c2cc3c(C)coc3c(C)c2oc1=O | -16.1% |
| O=C1c2ccccc2C(=O)N1c1cccc(O)c1 | -1.0% |
| O=C(NCc1ccccc1F)c1cc2ccccn2n1 | 4.4% |
| COc1cc(NC(=O)C2=C(C)Nc3nnnn3C2c2ccc(SC)cc2)c(OC)cc1Cl (stereo unspecified) | 3.5% |
| CCC1CN(C(=O)N2CCC(C(=O)N3CCN(c4ccccc4F)CC3)CC2)c2ccccc2O1 (stereo unspecified) | -2.2% |
| COc1ccc(NC(=O)C(Cc2ccccc2)NS(=O)(=O)c2ccc3c(c2)CCN3C(C)=O)cc1 (stereo unspecified) | 1.0% |
| Cc1ccc(C)c(S(=O)(=O)c2cn(C)c3cc(F)c(F)cc3c2=O)c1 | 1.7% |
| CCC(C)S(=O)(=O)c1oc(-c2ccc(F)cc2)nc1S(=O)(=O)c1ccc(F)cc1 (stereo unspecified) | -2.3% |
| CS(=O)(=O)n1nc(-c2ccco2)nc1NCc1ccccc1Cl | -1.6% |
| CC(C)c1ccc(NC(=O)CSC2=Nc3ccccc3C3=NC(CCC(=O)NCc4cccs4)C(=O)N23)cc1 (stereo unspecified) | -3.6% |
| Cc1ccc(C(=O)Nc2ccc(-c3nc4ccccc4o3)cc2)cc1Cl | -19.4% |
| CC(C)c1nc2ccc(C(=O)NCc3ccccc3Br)cc2o1 | -2.2% |
| COC(=O)c1ccccc1NC(=O)C1CCCN(c2ncnc3onc(C)c23)C1 (stereo unspecified) | -18.3% |
| CCSc1nc2c([nH]c3ccccc32)c(=O)n1CC | -0.1% |

(more compounds)
| Molecule | ClpP mod |
| --- | --- |
| O=C(Nc1ccccc1Br)c1cc(S(=O)(=O)NC2CCCCC2)ccc1F | -10.6% |
| COc1ccccc1NC(=O)CSc1nc2ccccc2c(=O)n1CCC(=O)NC1CCCCC1 | 1.2% |
| CCc1ccc(NC(=O)c2sc3nc(-c4ccccc4)cn3c2C)cc1 | -21.8% |
| O=C(NCc1ccccc1)c1cc2sccc2n1Cc1ccc(Cl)cc1 | u |
| CC1CCN(C(=O)c2cccc(NC(=O)c3nsc4ccccc34)c2)CC1 | -0.8% |
| CCN1CCN(C(c2ccc(Cl)cc2)c2c(O)cc(C)n(CCOC)c2=O)CC1 (stereo unspecified) | -0.5% |
| Cc1ccc(CN(Cc2ccco2)C(=O)COc2ccccc2C)cc1 | 0.0% |
| O=C(Cc1ccccc1)Nc1sc2c(c1C(=O)Nc1ccccc1Cl)CCCCC2 | -3.2% |
| Cc1ccc(/C=C/c2onc(C)c2S(=O)(=O)N2CCC(C(=O)Nc3cc(F)ccc3F)CC2)cc1 | -15.3% |
| Cc1ccc(Nc2cc(C)nc3nncn23)c(C)c1 | -2.5% |
| Cc1cc(C)c2oc(-c3ccc(C)c(NC(=O)/C=C/c4ccco4)c3)nc2c1 | 4.0% |
| CCOC(=O)c1cc(S(=O)(=O)NCc2ccccc2)[nH]n1 | -1.9% |
| COc1ccc(C2c3c(n(C)c4ccccc34)C(=O)N2CC(=O)Nc2ccc(C)c(Cl)c2)cc1 (stereo unspecified) | -25.1% |
| COc1cccc(N2CCN(C(=O)c3nn(C)c4c3CSc3ccc(C)cc3-4)CC2)c1 | 0.1% |
| C=C(C)Cn1c(=O)c2c(nc3n2CCN3c2ccc(F)cc2)n(C)c1=O | -5.2% |
| Clc1ccccc1CNc1ncnc2c1nc1n2CCCC1 | u |
| CCCS(=O)(=O)N1CC(=O)N(c2ccc(Cl)cc2C)C(C)(C(=O)NC2CCCC2)C1 (stereo unspecified) | 3.3% |
| CCCOc1cccc(C(=O)N2CCCCC2CCN2CCCCC2)c1 (stereo unspecified) | -0.9% |
| CCOc1ccccc1N(C)C(=O)Cn1nc(Cc2cccnc2)c2ccccc2c1=O | 1.2% |
| Cc1ccc(C)c(CSc2nc3c([nH]c4ccccc43)c(=O)n2C)c1 | -0.7% |
| Cc1cccc(-n2ncc3c(NC4CCCC4)ncnc32)c1 | -11.7% |
| Cc1ccc(CNC(=O)c2cc(S(=O)(=O)N3CCCCC3)cn2C)cc1 | 0.3% |
| Cc1cccc(N2CCN(C(=O)c3cn(C4CCCCC4)c(=O)c4c3c3ccccc3n4C)CC2)c1C | 8.91µM* |
| CCOC(=O)C1CCN(C(=O)c2nn(-c3ccc(C)cc3)c(=O)c3c2c2ccccc2n3C)CC1 | -3.8% |
| CCSc1nc2c([nH]c3ccccc32)c(=O)n1-c1cccc(OC)c1 | -16.2% |

Reprinted at random: 4 compounds from above.
| Molecule | ClpP mod |
| --- | --- |
| Clc1ccccc1CNc1ncnc2c1nc1n2CCCC1 | u |
| C=C(C)Cn1c(=O)c2c(nc3n2CCN3c2ccc(F)cc2)n(C)c1=O | -5.2% |
| CCN1CCN(C(c2ccc(Cl)cc2)c2c(O)cc(C)n(CCOC)c2=O)CC1 (stereo unspecified) | -0.5% |
| COc1cccc(N2CCN(C(=O)c3nn(C)c4c3CSc3ccc(C)cc3-4)CC2)c1 | 0.1% |

Later entries.
| Molecule | ClpP mod |
| --- | --- |
| COc1ccc(CC(=O)NC2CC(=O)N(c3cccc(F)c3)C2)cc1OC (stereo unspecified) | -1.7% |
| Cc1ccc(-c2nc3sc(CCNS(=O)(=O)c4cc(F)ccc4F)c(C)n3n2)cc1 | -0.6% |
| CCOc1ccc(NC(=O)c2cnn3c2NC(c2cccc(OC)c2)=CC3c2ccccc2)cc1 (stereo unspecified) | -2.0% |
| COc1ccccc1NC(=O)CN1C(=O)CSc2ccc(S(=O)(=O)N3CCCC3)cc21 | -2.3% |
| CCCNC(=O)c1ccc2c(c1)N=C(C)c1c(C)ccc(C)c1S2 | -0.7% |
| COc1ccccc1CNC(=O)C(C)n1c(=O)cc(-c2ccccc2)c2c(C)nn(C)c21 (stereo unspecified) | 4.4% |
| COc1ccc(CNC(=O)C2CCN(c3nnc(-n4c(C)ccc4C)s3)CC2)c(OC)c1 | -1.3% |
| Cc1ccccc1Nc1ncnc2c1c(-c1ccccc1)cn2-c1ccc(F)cc1 | 3.9% |
| Cc1ccc2nc(COc3ccc(NC(=O)COc4ccccc4F)cc3)cc(=O)n2c1 | -0.7% |
| COc1ccccc1NC(=O)C1=C(C)Nc2nc(CCCO)nn2C1c1cccc(O)c1 (stereo unspecified) | -1.1% |
| Cc1ccc(NC(=O)CCN2CCN(CCO)CC2)cc1C | 0.8% |
| COc1cc(OC)c(NC(=O)CC(c2cccs2)N2Cc3ccccc3C2=O)cc1Cl (stereo unspecified) | -1.1% |
| CCOC(=O)c1c(NC(=O)CSc2cn(CCNC(=O)c3ccc(OCC)cc3)c3ccccc23)sc2c1CCC2 | -3.4% |
| Cc1cccc(N2CCN(C(=O)c3ccc4c(c3)N(Cc3ccccc3F)C(=O)c3ccccc3S4=O)CC2C)c1 (stereo unspecified) | 0.7% |
| CC(Oc1ccc(Br)cc1)C(=O)N(Cc1nc(-c2ccccc2)no1)C(C)C (stereo unspecified) | -1.8% |
| CCC1CCCCN1CCCNC(=O)c1ccc2c(c1)N(Cc1cccc(C)c1)C(=O)c1ccccc1S2(=O)=O (stereo unspecified) | 1.8% |
| CCOC(=O)c1cccc(NC(=O)c2cnn(-c3ccccc3)c2-n2cccc2)c1 | 1.0% |
| COc1ccc(N(C(=O)c2cccc(C)c2)S(=O)(=O)c2ccc(Cl)cc2)cc1 | -1.8% |
| CCN1C(=O)c2ccccc2S(=O)c2ccc(C(=O)NCc3ccccc3OC)cc21 (stereo unspecified) | -0.2% |
| O=c1c2ccccc2n(Cc2cccc(Cl)c2)c(=O)n1CCc1ccccc1 | -7.9% |
| Cc1oc2c(cc(NS(=O)(=O)c3ccc(F)cc3)c3ccccc32)c1C(=O)OCc1ccccc1 | 0.6% |
| CCOc1ccc(NC(=O)C(=O)NCCc2csc3nc(-c4ccccc4F)nn23)cc1 | 2.3% |
| COc1cccc(NC(=O)CSc2nc(=O)n(Cc3ccco3)c3c2CCC3)c1 | -0.5% |
| COc1cccc(CN2C(=O)c3ccccc3Sc3ccc(C(=O)OCc4ccco4)cc32)c1 | -0.2% |
| CC(=O)Nc1ccc(S(=O)(=O)NCC2CCC(C(=O)NCCN(CC(C)C)CC(C)C)CC2)cc1 (stereo unspecified) | -10.5% |

Further records:
compound,ClpP mod
COC(=O)c1ccc(CSc2nnc3ccc4ccccc4n23)cc1,0.9%
COc1ccc2c(C)c(CCC(=O)NCc3ccc(C)cc3)c(=O)oc2c1,3.7%
CCOc1cccc2cc(-c3nc(-c4ccc(Cl)cc4)c(C)s3)c(=O)oc12,-5.6%
O=C(COc1ccccc1Cl)Nc1ccc2oc(-c3ccccc3F)nc2c1,u
COc1cccc(CNc2nc3c(-c4ccccc4)nnn3c3ccccc23)c1,u
CC(C)(C)c1ccc(-c2nc(NC(=O)CSc3ncnc4sc5c(c34)CCCC5)ns2)cc1,-2.1%
Cc1ccc(NC(=O)Cn2nnc3sc(-c4ccccc4)cc3c2=O)cc1Cl,9.1%
COc1ccc(OCc2ccc(-c3nc(C#N)c(N4CCN(c5ccccc5)CC4)o3)o2)cc1,-10.7%
CCc1ccccc1NC(=O)c1ccc(F)c(S(=O)(=O)NC2CCCCCC2)c1,1.9%
COc1cccc(CNC(=O)CN(c2ccc(C(C)C)cc2)S(=O)(=O)c2c(C)n[nH]c2C)c1,0.0%

Later entries
compound,ClpP mod
COc1cc2c(cc1OC)C(c1ccc(F)cc1)N(c1cccc(C#N)c1)C(=O)C2 (stereo unspecified),-5.9%
O=C(CC1N=C2c3ccccc3N=C(SCC(=O)Nc3ccc(F)cc3)N2C1=O)NCc1cccs1 (stereo unspecified),1.7%
Cc1cc(C)cc(NC(=O)CN2C(=O)CSc3ccc(S(=O)(=O)N(C)C)cc32)c1,0.3%
Cc1ccc(Cn2c3ccccc3c3cnn(CC(=O)N4CCCCCC4)c(=O)c32)cc1,u
COc1ccc(CCNC(=O)C(=O)Nc2ccccc2F)cc1,0.0%
CCC(C(=O)OCc1cc(=O)n2nc(C)sc2n1)c1ccccc1 (stereo unspecified),-3.2%
CCOC(=O)C1(C)C=C(Nc2ccc(OC)cc2)C(=O)N1c1ccccc1 (stereo unspecified),-13.2%
CC(C)(C)c1ccc(C(=O)NCCc2csc3nc(-c4ccccc4F)nn23)cc1,-0.1%
COc1ccc(CC(=O)Nc2ccc(-c3nc4ccccc4s3)c(C)c2)cc1,u
COc1cccc(CNC(=O)CN2C(=O)CCc3cc(S(=O)(=O)N4CCOCC4)ccc32)c1,-1.5%

(continued)
compound,ClpP mod
CCOc1ccc(S(=O)(=O)c2cn(Cc3ccc(C)cc3)c3ccc(OC)cc3c2=O)cc1,3.4%
Cc1ccc(CNS(=O)(=O)c2cc(C(=O)Nc3cccc(C(F)(F)F)c3)ccc2F)cc1,0.8%
CCOc1ccc(-c2cc3nc(C4CCN(C(=O)OC(C)(C)C)CC4)c(C(=O)Nc4cccc(Cl)c4C)cn3n2)cc1,4.4%
CCCn1c2ccccc2c2cnn(CC(=O)NCc3ccc(OC)cc3)c(=O)c21,u
COc1ccc(CNC(=O)Cc2c(C)c3c(cc(C)c4c(C)coc43)oc2=O)cc1,u
Cc1ccc(CNC(=O)CCc2c(C)c3cc4c(C)coc4cc3oc2=O)cc1,4.2%
Cc1ccccc1NC(=O)CSc1nc2c(c(=O)n(C)c(=O)n2C)n1Cc1ccccc1F,-0.3%
COCCn1c(=O)[nH]c2cc(C(=O)N3CCN(c4ccc(F)cc4)CC3)ccc2c1=O,-1.3%
O=C(Cc1ccc(OCCC2CCCCC2)cc1)NO,-3.9%
COc1ccc(-c2cc(C(F)(F)F)nc(-n3nc(C(F)(F)F)cc3C)n2)cc1,4.6%
O=C(Nc1c(Cl)cccc1Cl)c1cc(-c2cccc(O)c2)on1,-0.3%
CCOC(=O)c1ccccc1NC(=O)c1cc2c(s1)-c1c(C)cccc1OC2,u
